Compound activity from PubChem.
VDR inhibitor – vitamin D3 receptor (human) inhibition; VDR-SRC2-3 peptide fluorescence polarization, 2 h; AID 504847; Potency, µM, for inactives: max response, negative = inhibition, most hits filed as inhibitors; actives 0.93% (n = 400,000); active means well fitted inhibition curve with a large enough effect; inconclusive means small, poorly fitted or top-dose-only effect, or another doubt; inactive means no such curve, though single readings can be large or run the other way; further: series mostly up to about 120 µM
Target sequence (P11473 whole entry, looked up): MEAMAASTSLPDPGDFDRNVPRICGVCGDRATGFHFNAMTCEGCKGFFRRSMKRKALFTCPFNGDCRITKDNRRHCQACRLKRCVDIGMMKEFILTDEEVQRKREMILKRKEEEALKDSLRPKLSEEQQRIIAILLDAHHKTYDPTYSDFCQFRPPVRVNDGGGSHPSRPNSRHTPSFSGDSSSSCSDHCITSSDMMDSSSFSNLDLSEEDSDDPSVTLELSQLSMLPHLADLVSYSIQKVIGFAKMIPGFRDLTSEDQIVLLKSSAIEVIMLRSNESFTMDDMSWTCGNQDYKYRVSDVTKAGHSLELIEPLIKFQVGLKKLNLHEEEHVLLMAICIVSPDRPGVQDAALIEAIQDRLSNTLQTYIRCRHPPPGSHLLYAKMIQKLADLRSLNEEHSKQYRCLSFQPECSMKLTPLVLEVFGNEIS
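Compounds are added to VDR with labelled SRC2-3 coactivator peptide and held 2 h at room temperature. Inhibition of the VDR–peptide interaction is then read as a change in fluorescence polarization.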
Starred values were filed as active, the others as inactive; ? = inconclusive; & = joins results of further samples; [ ] = remark or other dose. On the % scale 0 is the no-effect control and ±100 the full control effect; potency means the concentration at half of the fitted maximal effect.

SMILES	VDR inhibitor
Cc1ccc(OCC(=O)Nc2cccc3ccccc23)c([N+](=O)[O-])n1	-0.9%
COc1ccc(CCNC(=O)C(=O)NCC2OCCN2S(=O)(=O)c2ccc(Br)cc2)cc1OC (centres undefined)	2.6%
CN=C(Nc1cc(C)nn1-c1ccccc1)c1ccc(F)cc1	-2.6%
O=C(Cn1cc2c(n1)CCCCC2)NC1CCCCCC1	-7.6%
FC(F)(F)c1ccc(N2CCOCC2)c(NC2=NCCCCC2)c1	13.7%
NC(=O)C1(Nc2ccc(Br)cc2)CCCC1	-1.0%
CN(CCOC(=O)c1ccc2c(c1)OCCO2)C(C)(C)C	10.8%
CC(NC(=O)c1nn(C)c2c1CSc1ccccc1-2)c1ccccc1 (centres undefined)	11.8%
CCCc1nnc(NC(=O)CCC(=O)N2CCCCCC2)s1	-2.6%
CC(C)CN(c1ccccc1)S(=O)(=O)c1nnc(NC(=O)c2ccco2)s1	-3.4%&11.8%
Cc1cn(CC(=O)NCCCN2CCCC2=O)c(=O)[nH]c1=O	3.2%
CC(Oc1cccc(Cl)c1)C(=O)NCCCCc1ccccc1 (centres undefined)	-5.2%
Cc1cc(C(=O)OCC(=O)NC(=O)c2cccn2C)c2ccccc2n1	10.8%
O=S(=O)(c1ccc(Cl)cc1)c1nc(-c2cccc(Br)c2)oc1NCc1ccccc1	7.1%
CC[C@]12c3[nH]c4cc(CCC(=O)N(C)C)ccc4c3CCN1C(=O)[C@@H](CC(=O)NCCCN(C)C)C[C@@H]2C(=O)N1CCN(C(=O)c2ccco2)CC1	-7.5%
CCOC(=O)Cc1csc(NC(=O)c2ccc(NC(C)=O)cc2)n1	-17.8%
O=C(O)c1ccc(Nc2nc3ccccc3n3cnnc23)cc1	-9.6%
COc1ccccc1CNC(=O)Nc1ccc2c(c1)N(C)C(=O)c1ccccc1S2	-9.5%
CC1CCN(S(=O)(=O)c2ccc3c(c2)c(=O)c(C(=O)NC(C)c2ccccc2)cn3C)CC1 (centres undefined)	-0.2%
COc1cc(C2N(c3ccc(F)cc3)C(=O)C3CCCN32)cc(OC)c1OC (centres undefined)	2.3%
CC[C@@]1(C(=O)OC)N[C@H](CN(C)C(=O)Nc2ccc(C(F)(F)F)cc2)[C@@H]2C(=O)N(Cc3ccccc3)C(=O)[C@@H]21	14.0%
O=C1CS/C(=N/N=C/c2ccccc2OS(=O)(=O)c2ccccc2)N1	-8.6%
CC(C)CC(=O)Nc1sc2c(c1C#N)CC(C)(C)NC2(C)C	12.8%
COC(=O)c1c(N)n(-c2ccc(OC)c(OC)c2)c2nc3ccccc3nc12	-10.2%
CCOC(=O)c1ccc(NC(=O)CSc2nccn2-c2ccc(OCC)cc2)cc1	-14.2%
O=C(C#Cc1ccccc1)NCc1ccccc1F	-2.8%
O=C(NCCCCNC(=O)c1ccc(Br)cc1)c1ccc(Br)cc1	0.0%
CC(C)(C)OC(=O)NCCCCCNC(=O)c1nc[nH]c1C(=O)N1CCc2ccccc2C1	-3.2%
CCOC(=O)c1[nH]c2ccc(F)cc2c1NC(=O)c1ccccc1C(=O)O	-11.4%
C/C=C(\C)CN1CCN(c2ccccc2)CC1	-6.5%
Cc1ccc(NC(=O)C(C)Sc2nc(-c3ccccc3)c(C#N)c(=O)[nH]2)c(C)c1 (centres undefined)	5.7%
CCOC(=O)c1sc(NC(=O)C(CC)OC(=O)C(CC(C)C)NC(=O)c2ccccc2)nc1C (centres undefined)	-9.4%
CCc1c(C)nc2ncnn2c1NCCc1ccc(OC)c(OC)c1	13.2%
COc1ccc(OCCCC(=O)OC(C)C(=O)Nc2ccc(S(N)(=O)=O)cc2)cc1 (centres undefined)	-1.6%
CCC(C)c1ccc(OCC(=O)Nc2ccc(CN3CCOCC3)cc2)cc1 (centres undefined)	-12.1%
COc1ccccc1-c1sc2cc3c(cc2c1-c1ccc(OCCN2CCOCC2)cc1)OCO3	-2.9%
C/C=C/c1ccc(OCc2cc(=O)n3cc(C)ccc3n2)c(OC)c1	-22.9%
COc1ccc(C(=O)N2CCN(c3ccc(N4CCOCC4)nn3)CC2)cc1OC	20.5%
Cc1cc(S(=O)(=O)NCC2CC2)c(Cl)cc1Cl	-21.4%
COc1ccc(CCNC(=O)C2CC3Cn4c(nc5ccccc54)C3N2Cc2ccccc2)cc1 (centres undefined)	3.7%
O=C(COC(=O)CCC1CCCC1)Nc1ccc(Cl)cn1	8.0%
Cc1ccc(-c2nc(-c3cccnc3)sc2CC(=O)Nc2ccc3nc(C)sc3c2)cc1	21.4%
Cc1noc(/C=C/c2ccccc2F)c1S(=O)(=O)N1CCC(C(=O)N2CCOc3ccccc32)CC1	1.6%
Cc1nc(CSc2n[nH]c(=O)n2-c2cccc(F)c2)cs1	0.1%
C=C1CCc2c([nH]c3ccc(OCC(C)C)cc23)C1=O	-26.1%
Cc1cc(-c2nnc(SCC(=O)Nc3cccc(Cl)c3)n2N)n[nH]1	4.3%
CCC(=O)Nc1cc(-c2cccc(C)c2)nn1-c1ccccc1	8.6%
C=CCOC(=O)C1=C[C@@H](c2ccc(C(F)(F)F)cc2)[C@H](CCCO)[C@@H](OCC)O1	-7.1%

A different layout for part of the listing above:
VDR inhibitor	Compound
0.1%	Cc1nc(CSc2n[nH]c(=O)n2-c2cccc(F)c2)cs1
-26.1%	C=C1CCc2c([nH]c3ccc(OCC(C)C)cc23)C1=O
4.3%	Cc1cc(-c2nnc(SCC(=O)Nc3cccc(Cl)c3)n2N)n[nH]1

(continued)
SMILES	VDR inhibitor
O=C(COc1ccc(S(=O)(=O)N2CCOCC2)cc1)NCc1ccccn1	4.9%
N=c1scc(-c2ccccc2)n1/N=C/c1ccco1	-9.4%
Cc1ccc(C)c(NC(=O)CCc2nc(-c3ccc(C(C)(C)C)cc3)no2)c1	13.5%
CCN(CC)c1ccc(C2CC(=O)Nc3cc(OC)c(OC)cc32)cc1 (centres undefined)	4.4%
CCOC(=O)C1CCN(C(=O)COC(=O)CSc2ccc([N+](=O)[O-])cc2)CC1	?
COc1ccc2nc(N3CCCCC3)c(C#N)cc2c1	15.7%
CC1(C)CC(=O)C/C(=N/NC(=O)COc2ccc3ccccc3c2Br)C1	-6.2%
CCCCN1C(=N)N([C@@H](CCC)CN2CCC[C@H]2CN2C(N)=NC[C@@H]2Cc2ccccc2)C[C@H]1Cc1ccccc1	17.2%
CC1(C)CC(=O)c2c(O)cc(OCC(=O)N3CCN(c4ccc(F)cc4)CC3)cc2O1	-1.5%
CCCC(=O)Nc1ccc2c(c1)nc(CN1CCN(C(=O)OCC)CC1)n2CC	8.6%
Fc1ccccc1/C=N/n1cnnc1	-2.8%
O=C1OC(c2ccccc2)C(O)=C1c1ccccc1 (centres undefined)	-11.4%
Cc1ccc(NC(=O)COC(=O)CN2C(=O)COc3ccccc32)cc1	13.9%
COc1cc(NC(=O)CSc2nc(-c3ccc(C(C)C)cc3)no2)cc(OC)c1	21.5%
Cc1cc(C)cc(C(=O)Nc2nnc(SCC(=O)NCC3CCCO3)s2)c1 (centres undefined)	11.0%
CCOC(=O)N1CCC(NCCNC(=O)c2cccc(F)c2)CC1	-6.2%
Cc1ccc(Nc2nnc(SCC(=O)Nc3cccc(S(=O)(=O)NC4=NCCCCC4)c3)s2)c(C)c1	-7.9%
CC1CC(=O)C(C(C2=C(O)CC(C)CC2=O)c2ccccc2)=C(O)C1 (centres undefined)	?
Cc1ccc(S(=O)(=O)CCC(=O)NNC(=O)CN(C)S(=O)(=O)c2ccc(C)cc2)cc1	10.1%
COC(=O)N1[C@H]2CC[C@@]3(C)C=C(C)O[C@]1(C)C3c1ccccc12	-2.7%
Cc1cccc(C)c1-n1ncc(C(=O)N2CCN(c3ncccn3)CC2)c1C1CCN(C(=O)OC(C)(C)C)CC1	20.0%
C=CCn1sc(N)c(C(=O)OCC)c1=S	-5.2%
COc1ccc(C2CC(=O)N(CC(=O)Nc3cccc(C)c3C)c3ccccc3S2)cc1OC (centres undefined)	-4.7%
O=C(N[C@@H](Cc1ccccc1)C(=O)CCl)OCc1ccccc1	5.62µM*
Cc1cc(Cl)ccc1OCC(=O)N/N=C/c1ccc(OC2OC(CO)C(O)C(O)C2O)cc1 (centres undefined)	2.8%
Cc1nc2c(Br)cc(Br)cc2c(=O)n1-c1ccccc1NC1OCC(O)C(O)C1O (centres undefined)	5.3%
O=C(CN1C(=O)C2CC=CCC2C1=O)Nc1nnc(SCc2ccc(Cl)cc2)s1 (centres undefined)	9.4%
Cc1ccc(Cn2ccnc2SCC(=O)Nc2nnc(C)s2)cc1	4.3%
COc1cccc(N2C(=O)/C(=C\c3cccs3)NC2=S)c1	-13.4%
COC(=O)c1ccc(CSC2=NC[C@@H]3[C@@H]4C(=O)N(Cc5ccccc5)C(=O)[C@@H]4[C@](C)(C(=O)OC)N23)cc1	14.6%
CC/C(=N\N=C(/CC)c1ccccc1N)c1ccccc1N	3.3%
CCOc1ccc(CNCCCSc2nnnn2C)cc1OC	2.1%
Nc1ccc(C(=O)N/N=C2\CCCc3c2[nH]c2ccccc32)cc1	-22.4%
CCC(c1nnc(SCC(=O)Nc2ccc(Cl)cc2C(F)(F)F)n1C1CCCCC1)N(C)C (centres undefined)	4.6%
O=C(Nc1cc(-c2nc3cc(Cl)ccc3o2)ccc1Cl)c1cc([N+](=O)[O-])ccc1N1CCOCC1	-9.8%
C[C@@]12C(=O)N(CC3CCCO3)CC(=O)N1[C@@H]1c3ccccc3OC[C@@H]1[C@@H]2c1ccccc1 (some centres undefined)	16.8%

Records above that bear a hit mark in VDR inhibitor:
SMILES	VDR inhibitor
O=C(N[C@@H](Cc1ccccc1)C(=O)CCl)OCc1ccccc1	5.62µM*

Later entries
SMILES	VDR inhibitor
CCc1nnc(NC(=O)c2ccc(OC)c(S(=O)(=O)N3CCCC3)c2)s1	6.1%
C=CCC(C)(NCc1ccccc1)c1ccc(C)cc1 (centres undefined)	7.1%
Cc1ccc(Cl)cc1N1CCN(S(=O)(=O)c2cn(C)cn2)CC1	-4.9%
CC(NC(=O)Cc1ccccc1)C(c1ccccc1)N1CCOCC1 (centres undefined)	-8.7%
COC(=O)Cn1c(N2CCCC2)nc2c1c(=O)n(C)c(=O)n2C	-3.3%
CCc1ccccc1NC(=O)c1cccs1	11.1%
Cc1cc(/C=C2\C(=N)N3N=C(CC(=O)N4CCOCC4)SC3=NC2=O)c(C)n1Cc1ccccc1	-7.5%
CN(C)c1ccc(C=NNc2ccccn2)c(Cl)c1	1.9%
COc1ccc(CN2C(=O)N(c3ccc(F)cc3)C(=O)C2CC(=O)Nc2ccccc2)cc1 (centres undefined)	-10.0%
CCN(CC(=O)Nc1ccccc1OC)CC(=O)Nc1c(Cl)ccc(C)c1Cl	-0.5%
O=C(NN1C(=O)NC2(CCCCC2)C1=O)c1cc2ccccc2o1	-4.0%
Cc1[nH]c2ccccc2c1/C=N/NC(=O)c1cccc(S(=O)(=O)Nc2cccc(C(F)(F)F)c2)c1	-0.3%

Part of the list above, reformatted.
> Cc1cc(/C=C2\C(=N)N3N=C(CC(=O)N4CCOCC4)SC3=NC2=O)c(C)n1Cc1ccccc1
  VDR inhibitor: -7.5%
> Cc1[nH]c2ccccc2c1/C=N/NC(=O)c1cccc(S(=O)(=O)Nc2cccc(C(F)(F)F)c2)c1
  VDR inhibitor: -0.3%
> CCc1nnc(NC(=O)c2ccc(OC)c(S(=O)(=O)N3CCCC3)c2)s1
  VDR inhibitor: 6.1%

Later entries.
SMILES	VDR inhibitor
COc1ccccc1-c1oc2ccccc2c1C#CC(C)(C)O	-0.8%
O=[N+]([O-])c1ccc(Nc2cccc3c2[nH]c2c(-c4ccccc4)nccc23)c([N+](=O)[O-])c1	-1.8%
CC(C)(C)NS(=O)(=O)c1ccc(N2C(=O)c3ccccc3C2=O)cc1	0.1%
COc1ccc2nc(SCC(=O)O)nc(C)c2c1	-7.4%
Cc1cccc(C(=O)O[C@H]2[C@H](Cc3ccccc3)NS(=O)(=O)[C@H]3CC4C=C[C@]23O4)c1	12.9%
Cc1ccc(S(=O)(=O)CCC(=O)OC2CC(C)OC2=O)cc1 (centres undefined)	10.1%
CC(=O)c1c(C)[nH]c(C(=O)OCC(=O)NCc2ccc3c(c2)OCO3)c1C	1.1%
COc1ccccc1C(=O)Nc1ccnn1C1CCN(C(=O)c2cnsn2)CC1	-8.9%
Cc1cc(C)n(-c2ccc(C(=O)OCC(=O)c3c(N)n(C)c(=O)n(C)c3=O)cc2)n1	-21.6%
CCOc1ccc(NC(=O)CSc2nc3nc(C)c(Cc4ccccc4)c(C)n3n2)cc1	11.1%
CCOC(=O)C1=C(COC(=O)c2ccc(OC)c(OC)c2OC)NC(=O)NC1C (centres undefined)	-3.9%
CN(CC(=O)Nc1ccc(F)cc1)C(=O)c1cccc(S(=O)(=O)N2CCN(c3ccc(F)cc3)CC2)c1	-12.1%
COC(=O)C1C(=O)c2c([nH]c(C(=O)OCC3CCCO3)c2C)CC1C (centres undefined)	-7.5%
COCC(C)NCc1ccc(C)cc1C (centres undefined)	-21.7%
COc1ccc2cc(C(=O)O)n(CC(=O)c3ccccc3)c2c1	81.7%[activator]
CCOC(=O)c1nn(-c2ccc(Cl)cc2C)ccc1=O	-6.6%
O=c1c(N2CCOCC2)c(N2CCOCC2)c1=O	-14.0%
COCCNC(=O)C(c1ccc(C)o1)N(C(=O)c1snc(C(N)=O)c1N)c1cc(C)cc(C)c1 (centres undefined)	-3.5%
CCOC(=O)CC(=O)CSc1nc2ccccc2c(=O)n1-c1ccc(C(=O)N2CCOCC2)cc1	5.9%
CCCc1cc(C(=O)OC)c(NC(=O)c2cc(C)on2)s1	-6.2%
Cc1nc2nc(SCC(=O)NCCCN3CCCCCC3)nn2c(C)c1Cc1ccccc1	-3.0%
COc1ccc(CNC(=O)C2CCN(c3nn4c(=O)cc(C)nc4s3)CC2)cc1	-6.1%
CC1=C(OC(=O)c2ccc(Br)cc2)C(C)(C)C(c2ccccc2)OC1=O (centres undefined)	5.0%
COCCn1c(-c2ccc(Br)cc2)csc1=Nc1cccnc1	2.5%
O=C(NNc1cccc(Cl)n1)c1cccnc1Cl	-18.0%

Not all compounds are listed. The share of hits here may be higher or lower than overall.
